NS1 function inh: inhibitors of influenza NS1 protein function; S. cerevisiae slowed by influenza A NS1, growth recovery by OD600; Potency, µM (highest dose often 46.1 µM), for the others: at the top dose activity, positive = more growth; 270,000 compounds, 0.4% hits; AID 2326; active means well fitted rising curve with a large enough effect; inconclusive means small, poorly fitted or top-dose-only effect; inactive means no such curve, though single readings can be large or run the other way; note: nearly all actives have a fitted effect of over 50% in size
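In this qHTS, NS1 from influenza A is expressed in budding yeast, where it slows growth. Cells are switched from glucose to 2% galactose medium (pH 6.0, -URA), treated with compound, and growth recovery is read at OD600.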
Marburg entry inh: Marburg virus entry inhibition; Marburg virus pseudotyped entry inhibition, cell reporter; control for the full effect not named in the record; about a third of the inactives were read at about 46 µM; Potency, µM (titrated, usually from 37.8 µM), for the others: at the top dose activity change, negative = inhibition, most hits filed as inhibitors; 300,000 compounds, 1.8% hits; active = well fitted inhibition curve with a large enough effect; inconclusive = small, poorly fitted or top-dose-only effect, or effect the other way; inactive = flat fitted curve, though single readings scatter; tested in HEK293 cells; about a fifth of its hits are not listed in these tables; note: % is set by controls: 0 for no effect and ±100 for the full control effect; luciferase read-out
Lassa entry inh: inhibitors of Lassa virus binding or cell entry | Lassa virus pseudotype entry inhibition, cell reporter; control for the full effect not named in the record | Potency, µM (doses to about 37.9 µM), for inactives: top-dose activity change, negative = inhibition, actives largely listed as inhibitors | 300,000 compounds, 1.2% hits; active means well fitted inhibition curve with a large enough effect; inconclusive means small, poorly fitted or top-dose-only effect, or effect the other way; inactive means flat fitted curve, though single readings scatter; tested in HEK293 cells; note: % is set by controls: 0 for no effect and ±100 for the full control effect; nearly all actives have a fitted effect of over 50% in size; luciferase read-out
Cruzain inh Det: cruzain (T. cruzi) inhibition with detergent. P25779. purified cruzain, Z-FR-AMC fluorescence, 0.01% Triton. Potency, µM, inactives show max response, negative = inhibition, hits mostly inhibitors. AID 1478. 200,000 compounds, 0.43% hits;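 note: plate controls were neutral wells for no effect and buffer without enzyme for full effect; nearly all actives have a fitted effect of over 40% in size; top concentration of the series not given in the record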
Target sequence (P25779 123-467 limits assumed): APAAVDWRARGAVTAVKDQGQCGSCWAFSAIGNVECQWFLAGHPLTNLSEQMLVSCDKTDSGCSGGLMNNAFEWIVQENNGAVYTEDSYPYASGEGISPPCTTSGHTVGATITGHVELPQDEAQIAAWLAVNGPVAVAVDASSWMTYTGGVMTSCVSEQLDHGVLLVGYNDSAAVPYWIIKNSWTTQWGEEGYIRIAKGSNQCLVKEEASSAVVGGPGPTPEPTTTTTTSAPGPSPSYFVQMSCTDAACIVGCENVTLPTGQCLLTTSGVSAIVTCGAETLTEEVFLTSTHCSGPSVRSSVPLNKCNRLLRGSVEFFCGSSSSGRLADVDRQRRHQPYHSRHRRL
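In this qHTS format, compounds are incubated with 1.5 nM cruzain for 15 min at room temperature before 2 uM Z-FR-AMC is added. Release of AMC is followed at 360/450 nm, and progress is taken as the 60 s fluorescence difference.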
RE007 growth inh: less growth of the S. pombe RE007 Vpr strain; S. pombe RE007 Vpr strain, BacTiter-Glo ATP luminescence, 24 h; control for the full effect not named in the record; Potency, µM (highest dose often 92.2 µM), inactives show at the highest dose activity change, negative = less growth; 360,000 compounds, 0.21% hits; active = well fitted falling curve with a large enough effect; inconclusive = small, poorly fitted or top-dose-only effect; inactive = no such curve, though single readings can be large or run the other way;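 note: % is set by controls: 0 for no effect and ±100 for the full control effect; nearly all actives have a fitted effect of over 50% in size; the assay follows cell death caused by Vpr and the record does not say whether a fall means rescue or toxicity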
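Fission yeast RE007 carrying one integrated HIV-1 vpr copy, seeded at OD 0.01 in PMG+AL medium with 23 nL pinned compound. Grown 24 h at 30 degrees; viability read by BacTiter-Glo luminescence after 5 min.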
Cruzain noTriton: cruzain (T. cruzi) inhibition without detergent. 200,000 compounds, 2.3% hits. purified cruzain, Z-FR-AMC fluorescence, no detergent. Potency, µM, without a hit: max response, negative = inhibition, hits mostly inhibitors;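 note: plate controls were enzyme without inhibitor for no effect and buffer without enzyme for full effect; nearly all actives have a fitted effect of over 40% in size; top concentration of the series not given in the record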
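Purified cruzain at 1.5 nM, pre-incubated 15 min with compound at room temperature in 100 mM sodium acetate pH 5.5, 5 mM DTT, 0.00005% Triton X-100. Reaction started with 2 uM Z-FR-AMC; AMC fluorescence increase over 60 s gives rate.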
StopGo reporter: lowers the luciferase signal of an FMDV 2A StopGo reporter. Potency, µM (titrated, usually from 57.9 µM), without a hit: top-dose signal change, negative = less light. 410,000 compounds, 1.2% hits. human cells with a luciferase reporter of 2A StopGo recoding; control for the full effect not named in the record; active = well fitted falling curve with a large enough effect; inconclusive = small, poorly fitted or top-dose-only effect; inactive = no such curve, though single readings can be large or run the other way; tested in HEK293T cells; note: % is set by controls: 0 for no effect and ±100 for the full control effect; nearly all actives have a fitted effect of over 45% in size; luciferase light after 4 h
SARS PLpro yeast: inhibitors of SARS-CoV papain-like protease in yeast; AID 485353; Potency, µM (top dose mostly 32.9 µM), for inactives: at the top dose activity, positive = growth rescue; S. cerevisiae expressing SARS-CoV PLpro, growth rescue; control for the full effect not named in the record; 330,000 compounds, 0.19% hits; active means well fitted rising curve with a large enough effect; inconclusive means small, poorly fitted or top-dose-only effect; inactive means no such curve, though single readings can be large or run the other way; note: 0% is about no effect; nearly all actives have a fitted effect of over 55% in size; growth read by luminescence after 48 h
Starred values were filed as active, the others as inactive; ? = inconclusive; · = not tested or not shown; & = joins results of further samples; [ ] = remark or other dose. Unless noted, calls come from the whole dose curve; as a rule, active = well fitted curve in the direction sought with a large enough effect; inconclusive = small, poorly fitted or top-dose-only effect, or another doubt; inactive = no such curve, though single readings can be large; an effect the other way counts as inactive or inconclusive. Potency is the fitted concentration of half-maximal effect.

item	structure	StopGo reporter	Cruzain noTriton	Cruzain inh Det	SARS PLpro yeast	Lassa entry inh	Marburg entry inh	NS1 function inh	RE007 growth inh
1	COc1ccccc1-n1c(O)c(C=NCc2ccc3c(c2)OCO3)c(=O)[nH]c1=O	-3%	-20%	-8.0%	-1%	?	-12%	-2%	-2%
2	O=C(c1cc(-c2ccco2)on1)N1CCN(C(c2ccccc2)c2ccccc2)CC1	?	-4%	-2.2%	-13%	-17%	?	-33%	-2%
3	COC(=O)c1ccc(NC(=S)NC(=O)c2cccnc2)cc1	-13%	·	·	-1%	22%[46.1 µM]	20%[46.1 µM]	8%	-1%
4	CCCN(C(=O)COC(=O)c1nc2nccc(C)n2n1)C1CCS(=O)(=O)C1 (stereo not given)	-1%	·	·	·	-4%	-10%[46.1 µM]	·	-8%
5	Cc1ccc(OCCN(C)C(=O)C2CCC(=O)N(Cc3ccccc3F)C2)cc1 (stereo not given)	-2%	·	·	-6%	-17%	29%	-7%	4%
6	Cc1[nH]n(-c2ccccc2)c(=O)c1/C=N/NC(=O)c1ccc(O)cc1O	15%	·	·	29%	·	·	-2%	4%
7	O=C(Oc1ccc(/C=N/NC(=O)c2ccccc2F)cc1)c1ccccc1	63%[activator]	·	·	4%	·	·	-4%	3%
8	COc1ccc(OCC(=O)N/N=C/c2ccsc2)cc1	0%	7%	-1.7%	-3%	-26%	4%	-8%	-30%
9	ClC(=C\c1ccccc1)/C=N/N1CCN(c2ccccn2)CC1	12%	-18%	-2.9%	-6%	-29%	-8%	8%	-17%
10	COCCN(C(=O)Nc1ccc(F)cc1F)c1nc2ccccc2s1	26%	·	·	-3%	15%[46.1 µM]	21%[46.1 µM]	5%	-14%
11	O=C(CSc1ncccn1)N1CCN(C(c2ccccc2)c2ccccc2)CC1	-21%	-2%	-3.1%	4%	?	-1%	-12%	2%
12	CCC(=O)Nc1ccc2nc(SCCOc3cccc(C)c3)sc2c1	-25%	19%	0.9%	·	-12%[46.1 µM]	-2%[46.1 µM]	·	·
13	COc1ccc(C(=O)NCCCn2nc(C)cc2C)cc1S(=O)(=O)N1CCOCC1	-8%	·	·	-1%	-8%	12%	·	-6%
14	COc1ccccc1Cn1c(CO)nc2ccccc21	-29%	·	·	0%	-4%[46.1 µM]	?	2%	3%
15	CCS(=O)(=O)NCC(c1ccco1)N1CCN(c2ccc(F)cc2)CC1 (stereo not given)	-20%&-7%	-2%&14%	0.1%&-2.8%	-15%	-20%[46.1 µM]	-8%&-8%	13%	17%
16	NC1=NC[C@H](Cc2ccc(O)cc2)N1CCc1cccc(F)c1	-11%	·	·	0%	·	·	-8%	4%
17	O=C(c1cccc(F)c1)N1CCN(C(=O)c2nn3cccnc3c2Cl)CC1	-23%	-14%	-1.1%	2%	14%	?	-3%	8%
18	O=C(Cc1ccccc1)n1nc(-c2ccccc2)nc1NCc1ccco1	28%	-3%	-2.6%	1%	·	·	-29%	6%
19	Cc1ccc(S(=O)(=O)N2CCOC2CNC(=O)C(=O)NCCc2ccc(S(N)(=O)=O)cc2)cc1 (stereo not given)	?	·	·	1%	-4%	-1%[46.1 µM]	-66%	-16%
20	CC(C)(C)NC(=O)COc1coc(CN2CCN(C(=O)c3ccco3)CC2)cc1=O	-6%	·	·	-1%	2%	-1%	·	-2%
21	Cc1ccc(C(C[N+](=O)[O-])n2nc(C)cc2C)cc1 (stereo not given)	?	?	-4.9%	-3%	10%	?	-71%	-12%
22	Cc1ccc(S(=O)(=O)N2CCC(C(=O)N3CCCC3C(=O)N[C@@H](CC(C)C)C(=O)NCC(N)=O)CC2)cc1 (stereo not given in full)	-6%	·	·	-2%	·	·	12%	-1%
23	CCn1c(-c2cccnc2Cl)nc2cc(C)c(C)cc21	-6%	·	·	0%	14%	27%[46.1 µM]	-5%	2%
24	COc1cccc(-c2cc(C(=O)NCC3CCCO3)c3cc(C)cc(C)c3n2)c1 (stereo not given)	7%	·	·	1%	?	-15%	-2%	-14%
25	Cc1ccc(S(=O)(=O)Cn2nnnc2C(CC(C)C)N2CCC(C(N)=O)CC2)cc1 (stereo not given)	12%	·	·	2%	16%	?	-8%	8%
26	Cc1nnc(Cl)c2nn(-c3ccccc3F)c(C)c12	-1%	-22%	4.9%	?	5%	17%	12%	5%
27	CC(C)c1ccc(N(C(=O)c2ccco2)C(C(=O)NC2CCCC2)c2cccnc2)cc1 (stereo not given)	7%	·	·	-1%	?	?	-4%	-11%
28	Cc1c(C(=O)Nc2ccc(-c3nnc4n3CCCCC4)cc2)oc2c1ccc1ccccc12	?	?	-17%	3%	?	?	20%	0%
29	NC1=NN(c2ccccc2)C(=O)C1	14%	·	·	·	-9%[46.1 µM]	?	·	9%
30	Cc1ccc(C)c(C2(O)CC(C)N(C)CC2C)c1 (stereo not given)	-14%	7%	0.9%	1%	16%	?	5%	18%
31	CCOc1ccc(NC(=O)CC(Cc2ccc(Cl)cc2)C(=O)O)cc1 (stereo not given)	0%	·	·	12%	22%	4%	-1%	4%
32	Cc1cc(C)cc(NC(=O)CCN2C(=O)c3ccccc3S2(=O)=O)c1	-5%	·	·	-2%	·	·	2%	-9%
33	Oc1c(CN2CCc3ccccc3C2)cc(Cl)c2cccnc12	?	-5%	0.4%	-30%	·	·	-96%	?
34	CN1CCN(C(=O)/C(=C\c2ccc3c(c2)OCO3)NC(=O)c2cccs2)CC1	23%	·	·	0%	17%	?	·	-14%
35	CN(C)c1ncc(S(=O)(=O)c2ccccc2)c(=O)[nH]1	2%	·	·	1%	·	·	6%	9%
36	O=C(NCCNC(=O)c1cc(OCC(F)(F)F)ccc1OCC(F)(F)F)Nc1ccc(OC(F)(F)F)cc1	-23%	6%	-5.1%	-2%	-10%	-23%	1%	17%
37	CCCNC(=O)c1ccc(CN2CCc3ccccc3C2)cc1	0%	3%	0.2%	-15%	7%	-11%	-1%	21%
38	COCCNC(=S)Nc1ccc2nc(N3CCOCC3)cc(C)c2c1	-5%	·	·	0%	·	·	5%	-8%
39	CCc1cnc2c(c1SC(C(C)=O)C(=O)N(C)C)c(=O)n(C)c(=O)n2C (stereo not given)	-17%	-11%	-17%	·	0%[46.1 µM]	·	·	·
40	COc1ccc(CC(=O)c2ccc(OC3OC(CO)C(O)C(O)C3O)cc2O)cc1 (stereo not given)	31%[activator]	·	·	0%	·	·	5%	-3%
41	CCc1nc2ccccc2c(=O)n1-c1ccccc1OC	-10%	·	·	3%	-6%[46.1 µM]	6%[46.1 µM]	20%	-2%
42	CN(Cc1nc(-c2ccccc2)no1)C(=O)c1ccc2c(c1)OCO2	-12%	·	·	2%	13%	?	·	23%
43	CC1(c2ccc(Cl)cc2Cl)OCC(Cn2ccnc2)O1 (stereo not given)	0%	-3%	2.7%	-9%	-16%	-12%	-57%	-2%
44	O=C(CCNS(=O)(=O)c1cccs1)N1CCN(c2cccc(Cl)c2)CC1	-20%	·	·	-1%	·	-29%[46.1 µM]	-5%	-17%
45	COc1ccc(-c2nnc(SCC(=O)Nc3cccc(C(F)(F)F)c3)nc2-c2ccc(OC)cc2)cc1	8%	-22%	-5.3%	·	?	·	·	·
46	Cc1ccc(-c2cn3c(n2)sc2cc(C(=O)NC4CCCc5ccccc54)ccc23)cc1 (stereo not given)	45%[activator]	4%	-2.1%	·	7%[46.1 µM]	·	·	·
47	CCN(C(=O)COC(=O)c1oc2ccc(OC)cc2c1C)C1CCCCC1	-8%	·	·	-4%	0%	18%	·	-15%
48	COc1ccc(N2CC(C(=O)OC(C)C(=O)c3ccccc3)CC2=O)cc1 (stereo not given)	-5%	·	·	1%	12%[46.1 µM]	1%[46.1 µM]	7%	2%
49	CC(=O)c1ccc(N2CCN(c3ccc(NC(=O)c4cccs4)cc3C(=O)O)CC2)cc1	-20%	-3%	3.0%	·	-4%[46.1 µM]	·	·	·
50	Cc1ccccc1N=C1C(=O)Nc2ccccc21	-20%	·	·	·	30%	-5%	·	-14%
51	COc1ccccc1N1CCN(c2nc(-c3ccc(C)cc3)nc3ccccc23)CC1	?	11%	0.6%	·	1%[46.1 µM]	·	·	·
52	Cc1cc(CNC(=O)COc2ccc(C#N)cc2)c2ccccc2n1	-25%	·	·	0%	-9%	-11%[46.1 µM]	8%	-14%
53	CC(C)CCn1c(=O)c(C(=O)Nc2ccccc2S(N)(=O)=O)c(O)c2ccccc21	-4%	-13%	-6.8%	-6%	?	?	3%	-12%
54	CCOC(=O)C(=CNCC(=O)OC)C(=O)OCC	0%	-8%	-1.9%	?	4%	2%[46.1 µM]	6%	10%
55	CCOc1ccc(-n2c(Cc3cc(=O)[nH]c(=O)[nH]3)nnc2SCC(=O)NC2CCCC2)cc1	0%	-2%	-0.1%	-2%	·	·	3%	3%
56	Cc1ccc(S(=O)(=O)NCCC(=O)N2CCN(c3cccc(Cl)c3)CC2)cc1C	?	·	·	-3%	-25%	?	-91%	0%

Later entries:
item	structure	StopGo reporter	Cruzain noTriton	Cruzain inh Det	SARS PLpro yeast	Lassa entry inh	Marburg entry inh	NS1 function inh	RE007 growth inh
57	O=C1CCC(C(=O)N2CCN(c3ccccc3Cl)CC2)CN1CC1CCCCC1 (stereo not given)	-25%	·	·	-3%	·	·	-2%	-3%
58	S=C1Nc2ccccc2Sc2ccccc21	0%	·	·	1%	-1%	-4%[46.1 µM]	10%	-10%
59	COC(=O)c1oc2ccccc2c1-n1cccc1	-9%	2%	5.0%	-2%	-4%	7%	-3%	-7%
60	COc1ccc(CN2CCNC(=O)C2CC(=O)NCc2cn[nH]c2-c2ccccc2)c(F)c1 (stereo not given)	-3%	·	·	3%	2%[46.1 µM]	?	18%	10%
61	Cc1ccc(NC(=S)N(Cc2cccs2)Cc2cc3cc(C)ccc3[nH]c2=O)cc1	0%	16µM*	-6.2%	-18%	7.1µM*	4.5µM*	6%	-8%
62	CCc1ccc(OCC(=O)Nc2ccc3[nH]ncc3c2)cc1	19%	·	·	0%	·	·	12%	4%
63	CN(C)c1nc(N)nc(Cn2nnc(-c3ccc(C(F)(F)F)cc3)n2)n1	-13%	·	·	1%	·	-4%[46.1 µM]	·	-7%
